VDR inh: Inhibitors of the vitamin D receptor (VDR): qHTS | Vitamin D3 receptor (Homo sapiens), P11473 | Potency, µM, inactives show max response, negative = inhibition, hits mostly inhibitors | 400,000 tested, 0.93% active | VDR-SRC2-3 peptide fluorescence polarization, 2 h; active = well fitted inhibition curve with a large enough effect; inconclusive = small, poorly fitted or top-dose-only effect, or another doubt; inactive = no such curve, though single readings can be large or run the other way; note: series mostly up to about 120 µM
Target sequence (P11473 whole entry, looked up): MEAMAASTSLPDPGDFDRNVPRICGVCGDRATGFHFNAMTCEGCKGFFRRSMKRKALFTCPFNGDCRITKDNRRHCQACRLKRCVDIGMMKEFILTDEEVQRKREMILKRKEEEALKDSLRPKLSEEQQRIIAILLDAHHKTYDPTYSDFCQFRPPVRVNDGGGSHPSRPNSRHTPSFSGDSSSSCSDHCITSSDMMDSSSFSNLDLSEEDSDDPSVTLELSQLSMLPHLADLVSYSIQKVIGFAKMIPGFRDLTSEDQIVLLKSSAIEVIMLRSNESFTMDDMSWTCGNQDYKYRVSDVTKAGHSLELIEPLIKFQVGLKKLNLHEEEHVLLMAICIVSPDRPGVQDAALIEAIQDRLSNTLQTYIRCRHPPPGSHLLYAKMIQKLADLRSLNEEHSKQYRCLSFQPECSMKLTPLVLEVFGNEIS
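Inhibition of the VDR/SRC2-3 peptide interaction is quantified by fluorescence polarization. Compounds (23 nl, pintool) incubate with the reagents for 2 hours at ambient room temperature.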
Starred values were filed as active, the others as inactive; & = joins results of further samples. % is set by controls: 0 for no effect and ±100 for the full control effect; potency is the fitted concentration of half-maximal effect.

How did CCC(C)C(=O)Nc1cc(C(=O)OC)ccc1C(=O)OC (stereo not drawn) do in these assays?
VDR inh: 16%

What do the screens show for `CCCC(=O)Nc1ccc(C(=O)COC(=O)C2CC2C)cc1` (stereo not drawn)?
VDR inh: -19%

What do the screens show for `CCOc1ccc(S(=O)(=O)Nc2ccc(F)cc2)c(C)c1C`?
VDR inh: -8%

Results for CC(C(=O)Nc1ccccc1-c1ccccc1)N1CCN(S(=O)(=O)c2ccccc2)CC1 (stereo not drawn) ?
VDR inh: -7%

How did O=C(NC(=S)Nc1ccc(Cl)cc1)c1cncc(Br)c1 do in these assays?
VDR inh: -11%

How did Cc1nc(SCC(=O)Nc2nsc(-c3ccc(C(C)(C)C)cc3)n2)c2c3c(sc2n1)CCCC3 do in these assays?
VDR inh: -12%

What do the screens show for `COc1ccc(C2=NN(CCC(=O)NCC3CCCO3)C(=O)CC2)cc1` (stereo not drawn)?
VDR inh: 11%

What do the screens show for `CCC(C)NC(=O)C1CC(c2cccc(OC)c2)=NO1` (stereo not drawn)?
VDR inh: -8%

Results for O=C(Nc1ccccc1)N1CCC(C(=O)N2CCN(Cc3ccccc3)CC2)CC1 ?
VDR inh: -9%

How did COc1cc(OC)c(OC)cc1/C=N/NC(=O)c1cnccn1 do in these assays?
VDR inh: 10%

How did CCCCNC(=O)c1ccc(CS(=O)(=O)c2cccc(C(F)(F)F)c2)o1 do in these assays?
VDR inh: -25%

What do the screens show for `CCN1CCN(C2=C(NS(=O)(=O)c3ccc(C)cc3)C(=O)c3ccccc3C2=O)CC1`?
VDR inh: -3%

Results for CCS(=O)(=O)N1Cc2ccccc2CC1C(=O)OCC(=O)Nc1ccc(SC(F)F)cc1 (stereo not drawn) ?
VDR inh: 5%

Results for Cc1ccc(C(=O)Nc2nc3n(n2)C(c2ccccc2)C=C(c2ccccc2)N3)cc1 (stereo not drawn) ?
VDR inh: 16%

Results for O=C(NNC(=O)c1ccncc1)c1ccncc1 ?
VDR inh: -19%

What do the screens show for `Cc1ccc(OCCNC(=O)c2ccco2)cc1C`?
VDR inh: 16%

How did COC(=O)Nc1csc2c1NC(=O)CCCC2 do in these assays?
VDR inh: -15%

Results for O=C(N=NC(=O)c1ccc2c(O)n(CC3CCCO3)c(O)c2c1)c1cccnc1 (stereo not drawn) ?
VDR inh: -1%

What do the screens show for `CCOc1ccc(CNC(=O)CCn2c(=O)c3cccn3c3cccnc32)cc1`?
VDR inh: 1%

What do the screens show for `CCOC(=O)C1(C)C=C(Nc2ccc(C)cc2)C(=O)N1c1ccccc1` (stereo not drawn)?
VDR inh: -8%

What do the screens show for `O=C(O)CCc1ccc(S(=O)(=O)Nc2ccccc2C(=O)NCCc2ccccc2)cc1`?
VDR inh: -4%

What do the screens show for `O=C(c1cc(-c2ccc(Br)cc2)nc2ccccc12)N1CCN(c2ccccc2O)CC1`?
VDR inh: 0%

How did NC(=O)c1ccccc1OCc1cccc2ccccc12 do in these assays?
VDR inh: -14%

How did O=c1[nH]c(C2CCCN(S(=O)(=O)c3ccc(F)cc3)C2)nc2c1nnn2Cc1ccc(F)cc1 (stereo not drawn) do in these assays?
VDR inh: 16%

Results for CC1Sc2ccc(S(=O)(=O)N3CCC(C(=O)NCCc4ccccc4)CC3)cc2NC1=O (stereo not drawn) ?
VDR inh: -6%

How did CN1CCC(NC(=O)Nc2cccc(C(F)(F)F)c2)CC1 do in these assays?
VDR inh: 14%

Results for CC(C)CC(=O)Nc1ccccc1N1CCN(c2ccccc2)CC1 ?
VDR inh: 1%

How did COc1ccc(N2CCN(C(=O)C(C)(C)Oc3ccc(Cl)cc3)CC2)cc1 do in these assays?
VDR inh: -14%

What do the screens show for `CCOc1ccc(C2Nc3ccc4ccccc4c3-c3c2c(=O)oc2ccccc32)cc1` (stereo not drawn)?
VDR inh: -9%

How did CCc1ccc(NC(=O)[C@H](CSCc2ccccc2)N2Cc3ccccc3C2=O)cc1 do in these assays?
VDR inh: -14%

For convenience, part of the list above.
What do the screens show for `CCOc1ccc(C2Nc3ccc4ccccc4c3-c3c2c(=O)oc2ccccc32)cc1` (stereo not drawn)?
VDR inh: -9%

How did CCc1ccc(NC(=O)[C@H](CSCc2ccccc2)N2Cc3ccccc3C2=O)cc1 do in these assays?
VDR inh: -14%

Remaining list, next part:
What do the screens show for `COc1cccc(CCc2nnc(CCC(=O)N(C)C3CC(C)(C)NC(C)(C)C3)o2)c1`?
VDR inh: 2%

How did CCOCCCNC(=O)/C(C#N)=C/c1ccc(Cl)c([N+](=O)[O-])c1 do in these assays?
VDR inh: inconclusive

What do the screens show for `O=C(Cc1ccccc1)Nc1ccccc1C(=O)Nc1ccccc1`?
VDR inh: 4%

How did O=C(Nc1ccccc1)OC1CC2CC1C1CCCC21 (stereo not drawn) do in these assays?
VDR inh: -12%

How did O=C(N/N=C/c1ccc2c(c1)OCO2)C(=O)N1CCCC1 do in these assays?
VDR inh: 12%

Results for O=C(N/N=C/C=C/c1ccco1)c1cccnc1 ?
VDR inh: inconclusive

What do the screens show for `CCOc1ccc(-c2cc(C(=O)NCCc3ccc(OC)c(OC)c3)c3c(-c4ccc(F)cc4)[nH]nc3n2)cc1`?
VDR inh: -2%

How did C=CCNc1cc(=O)n(Cc2ccccc2)c(=O)[nH]1 do in these assays?
VDR inh: -10%

How did Cc1cccc(N(CC(=O)N2CCc3ccccc3C2)S(C)(=O)=O)c1C do in these assays?
VDR inh: 29%

How did Cc1ccc(OCCNC(=O)CCNS(=O)(=O)c2ccc(Br)cc2)cc1 do in these assays?
VDR inh: -1%

Results for CCc1c(C)[nH]n(-c2nc(-c3cccc([N+](=O)[O-])c3)cs2)c1=O ?
VDR inh: -6%

How did O=[N+]([O-])c1ccc(-c2cn(-c3ccccc3)c(=S)[nH]2)cc1 do in these assays?
VDR inh: 10%

How did COc1cc2[nH]c(=S)nc(NCc3ccc(C)cc3)c2cc1OC do in these assays?
VDR inh: -6%

How did COc1ccccc1Nc1ccncc1[N+](=O)[O-] do in these assays?
VDR inh: -11%

What do the screens show for `Cc1ccc(CN2CCc3[nH]c(=S)[nH]c(=O)c3C2)cc1`?
VDR inh: -9%

How did COc1ccc(NC(=O)C2CCCN2C(=O)NC2CCCCC2)cc1OC (stereo not drawn) do in these assays?
VDR inh: -2%

How did Cn1c(COc2ccc(Cl)cc2)nc2ccccc2c1=O do in these assays?
VDR inh: 2%

What do the screens show for `CCOc1ccc(N2C(=O)CC(N(Cc3ccco3)C(=O)CCC(=O)O)C2=O)cc1` (stereo not drawn)?
VDR inh: -6%

How did COC(=O)C1=C(C)OC(N)=C(C#N)C1C1CCCCC1 (stereo not drawn) do in these assays?
VDR inh: -10%

How did CCC1CCCCN1CC(C)(C)NS(=O)(=O)c1ccccc1 (stereo not drawn) do in these assays?
VDR inh: -11%

Results for COc1ccc(NC(=O)Cn2c(=O)oc3cc(S(=O)(=O)NC4CCCC4)ccc32)cc1OC ?
VDR inh: 2%

How did O=C(CSc1cccc[n+]1[O-])Nc1ccccc1C(F)(F)F do in these assays?
VDR inh: 21%

What do the screens show for `Cc1ccc2[nH]c(CSc3nnc(NC(=O)c4ccccc4C)s3)cc(=O)c2c1`?
VDR inh: 9%

What do the screens show for `CC(=O)Nc1ccc(S(=O)(=O)N[C@@H](C)C(=O)N2CCN(c3ccccn3)CC2)cc1`?
VDR inh: inconclusive

What do the screens show for `COc1ccc(C)cc1N1CC(C(=O)Nc2ccccc2N2CCCCC2)CC1=O` (stereo not drawn)?
VDR inh: -7%

Results for CC1(C)CC2CC(C)(CN2C(=O)c2cc(-c3ccccc3)on2)C1 (stereo not drawn) ?
VDR inh: -8%

What do the screens show for `CSc1ccccc1NC(=O)CN(C)CC(=O)Nc1ccccc1F`?
VDR inh: -9%

What do the screens show for `CSc1nnc(C)c(/C=C/NOCc2ccc(Cl)cc2)n1`?
VDR inh: 5%

How did O=C(OCC(=O)N1CCc2ccccc21)[C@@H]1CC(O)CN1S(=O)(=O)c1ccccc1[N+](=O)[O-] (stereo partly drawn) do in these assays?
VDR inh: -19%

What do the screens show for `CC(C)C(=O)Nc1ccccc1N1CCN(S(C)(=O)=O)CC1`?
VDR inh: -3%

Reprinted at random: 5 records from the list
How did CCC(C)C(=O)Nc1cc(C(=O)OC)ccc1C(=O)OC (stereo not drawn) do in these assays?
VDR inh: 16%

How did Cn1c(COc2ccc(Cl)cc2)nc2ccccc2c1=O do in these assays?
VDR inh: 2%

How did COc1ccc(NC(=O)C2CCCN2C(=O)NC2CCCCC2)cc1OC (stereo not drawn) do in these assays?
VDR inh: -2%

How did O=C(OCC(=O)N1CCc2ccccc21)[C@@H]1CC(O)CN1S(=O)(=O)c1ccccc1[N+](=O)[O-] (stereo partly drawn) do in these assays?
VDR inh: -19%

Results for O=C(NNC(=O)c1ccncc1)c1ccncc1 ?
VDR inh: -19%

Back to the main list; the 6 compounds before the break are reprinted first.
What do the screens show for `COc1ccc(C)cc1N1CC(C(=O)Nc2ccccc2N2CCCCC2)CC1=O` (stereo not drawn)?
VDR inh: -7%

Results for CC1(C)CC2CC(C)(CN2C(=O)c2cc(-c3ccccc3)on2)C1 (stereo not drawn) ?
VDR inh: -8%

What do the screens show for `CSc1ccccc1NC(=O)CN(C)CC(=O)Nc1ccccc1F`?
VDR inh: -9%

What do the screens show for `CSc1nnc(C)c(/C=C/NOCc2ccc(Cl)cc2)n1`?
VDR inh: 5%

How did O=C(OCC(=O)N1CCc2ccccc21)[C@@H]1CC(O)CN1S(=O)(=O)c1ccccc1[N+](=O)[O-] (stereo partly drawn) do in these assays?
VDR inh: -19%

What do the screens show for `CC(C)C(=O)Nc1ccccc1N1CCN(S(C)(=O)=O)CC1`?
VDR inh: -3%

Results for O=C(COc1ccc(-n2cnnn2)cc1)NC1CCCCC1 ?
VDR inh: -1%

How did CCc1cc2c(Nc3ccc(O)cc3)nc(C)nc2s1 do in these assays?
VDR inh: 4%

Results for CCOc1cc(/C=C2\SC(=NC)N(C)C2=O)cc(Cl)c1OC(C)=O ?
VDR inh: 8%

What do the screens show for `Cc1ccc(NC(=S)N2CCCCCC2)cc1`?
VDR inh: -7%

Results for O=C(NCc1ccc(Cl)cc1)c1cc(=O)[nH]c2ccccc12 ?
VDR inh: -13%

What do the screens show for `O=C(c1cccc(C(F)(F)F)c1)N1CCC(O)(CS(=O)(=O)Cc2ccccc2Cl)CC1`?
VDR inh: 12%

How did COC(C(=O)Nc1ccc(F)cc1F)c1ccccc1 (stereo not drawn) do in these assays?
VDR inh: 16%

How did CC1CCc2cc(F)ccc2N1C(=O)c1cccnc1 (stereo not drawn) do in these assays?
VDR inh: 22%

How did COC(=O)c1ccc(C(=O)OC)c(NC(=O)COC(=O)C2CC2C)c1 (stereo not drawn) do in these assays?
VDR inh: -2%

Results for COC(=O)N1CCC2(CC1)CN(C(=O)Nc1ccc(OC)cc1)C2 ?
VDR inh: -1%

How did COc1cc(C(NC=O)C(=O)Nc2c(C)cccc2C)ccc1O (stereo not drawn) do in these assays?
VDR inh: -2%

What do the screens show for `CSCC[C@H](NC(=O)OC(C)(C)C)C(=O)N/N=C/c1ccc2nccnc2c1`?
VDR inh: -14%

Results for N#Cc1ccc(Oc2cccnc2)cc1C#N ?
VDR inh: 13%

How did O=C(CCc1nc2ccccc2c(=O)[nH]1)N1CCN(S(=O)(=O)c2ccc(Cl)c(C(F)(F)F)c2)CC1 do in these assays?
VDR inh: -21%

How did O=C(CSc1nnnn1C1CCCC1)Nc1ccccc1N1CCOCC1 do in these assays?
VDR inh: 8%

What do the screens show for `Nc1nc(Cl)c2ncn(C3OC(CO)C(O)C3O)c2n1` (stereo not drawn)?
VDR inh: -3%&-1%

What do the screens show for `Brc1cccc(CNCCSc2nnnn2-c2ccccc2)c1`?
VDR inh: 5%

What do the screens show for `CN1CCN(c2ncnc3c2cnn3-c2ccc(Cl)cc2)CC1`?
VDR inh: -10%

What do the screens show for `O=C(Nc1cccc(F)c1)N1CC[C@@]2(CCCNC2)C1`?
VDR inh: inconclusive

How did Cc1sccc1/C=N/NC(=O)c1ccco1 do in these assays?
VDR inh: -10%

How did O=C(O)CSCC(=O)N1CCN(Cc2ccc3c(c2)OCO3)CC1 do in these assays?
VDR inh: -12%

What do the screens show for `CC(=O)Nc1ccc(NC(=O)C2CC(=O)Nc3nc4ccccc4n32)cc1` (stereo not drawn)?
VDR inh: 1%

Results for COC(=O)c1c(C)oc(C)c1S(=O)(=O)N1CCOCC1 ?
VDR inh: -4%

How did CCn1cc(CNC(=O)/C=C/c2cnn(C)c2)c(C)n1 do in these assays?
VDR inh: 3%

Results for COc1ccc(Nc2ccc(N3C(=O)CCC3=O)cc2[N+](=O)[O-])cn1 ?
VDR inh: -3%

What do the screens show for `CC(=O)N1CCOc2cc(S(=O)(=O)Nc3cc(C(F)(F)F)ccc3Cl)c(C)cc21`?
VDR inh: -6%

How did COc1ccc(-c2ccc3c(c2)[C@@H]2C[C@H](N(C)C(=O)C(C)(C)C)[C@H]([C@H](C)O)C(=O)N2CC3)cc1 do in these assays?
VDR inh: -5%

Results for CC1(C)S[C@@H]2[C@H](NC(=O)COc3ccccc3)C(=O)N2[C@H]1C(=O)O (tested in a mixture with another compound) ?
VDR inh: 13%

Results for CC1(C)C(=O)Nc2ccccc2N1C(=O)CSc1nnc2c(Cl)cc(Cl)cn12 ?
VDR inh: 12%

How did Cc1ccc(C)c2[nH]c(=O)c(C(c3nnnn3C(C)(C)C)N3CC=C(c4ccc(F)cc4)CC3)cc12 (stereo not drawn) do in these assays?
VDR inh: -4%

What do the screens show for `CCn1c(=S)sc2c(=O)n(CC(=O)Nc3ccc(Cl)cc3)c(C)nc21`?
VDR inh: -15%

How did COc1ccc(S(=O)(=O)N(C)CC(=O)NCCCN2CCOCC2)cc1C do in these assays?
VDR inh: -13%

How did COc1ccccc1NC(=O)CSc1nc(=O)n(CCN2CCOCC2)c2c1CCC2 do in these assays?
VDR inh: -18%

How did O=C(CSc1nnc(-c2ccccc2Cl)n1Cc1ccco1)Nc1ccc2c(c1)OCCO2 do in these assays?
VDR inh: -7%

What do the screens show for `O=C(CCCCCn1c(=O)[nH]c2ccsc2c1=O)NCc1ccccc1`?
VDR inh: inconclusive

Source: PubChem

These rows are one share of the data (hit frequency here may not be typical).
